2A StopGo: High Throughput Screening for Foot and Mouth Disease Virus Antivirals. AID 1159524, 2015. 410,000 tested, 1.2% active. Potency, µM (doses to about 57.9 µM), without a hit: top-dose signal change, negative = less light. human cells with a luciferase reporter of 2A StopGo recoding; control for the full effect not named in the record; active = well fitted falling curve with a large enough effect; inconclusive = small, poorly fitted or top-dose-only effect; inactive = no such curve, though single readings can be large or run the other way; tested in HEK293T cells; further: nearly all actives have a fitted effect of over 45% in size; luciferase light after 4 h
RE007 growth inh: qHTS Assay for Inhibitors of the HIV-1 protein Vpr; S. pombe RE007 Vpr strain, BacTiter-Glo ATP luminescence, 24 h; control for the full effect not named in the record; Potency, µM (top dose mostly 92.2 µM), without a hit: at the top dose activity change, negative = less growth; 360,000 tested, 0.21% active; AID 651644, 2012; active = well fitted falling curve with a large enough effect; inconclusive = small, poorly fitted or top-dose-only effect; inactive = no such curve, though single readings can be large or run the other way;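 further: nearly all actives have a fitted effect of over 50% in size; the assay follows cell death caused by Vpr and the record does not say whether a fall means rescue or toxicity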
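Fission yeast strain RE007, carrying one chromosomally integrated HIV-1 vpr copy, was seeded at OD 0.01 in PMG+AL medium with 23 nL pinned compound. After 24 h at 30 °C and 99% humidity, viability was read by BacTiter-Glo luminescence.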
* hit, by the source's call; ? = inconclusive; [ ] = another dose, or the depositor's remark. On the % scale 0 is the no-effect control and ±100 the full control effect; potency means the concentration at half of the fitted maximal effect. Not all compounds are listed; rates above refer to the full screens.

SMILES	2A StopGo	RE007 growth inh
CN(CCc1ccccc1)C(=O)c1[nH]c(C(F)(F)F)nc1-c1ccccc1	-13%	7%
COC(=O)CCC(=O)OC1(C)C(=O)C2=CN(c3ccc(OC)cc3)C(c3ccc(OC)cc3)=CC2=C(Br)C1=O (stereo not drawn)	31%[activator]	-13%
CCCNC(=O)c1cc(C2CCCCN2C(=O)c2ccc(OC)cc2)on1 (stereo not drawn)	-14%	-9%
O=S1(=O)N[C@@H](Cc2ccccc2)COc2cc(N3CCC[C@H]3CO)ccc21	?	19%
Cn1c(=O)c2cc(NC(=S)NC3CCCCC3)ccc2n1Cc1cccc(C(F)(F)F)c1	8%	10%
COc1cccc(C(c2nnnn2-c2c(C)cccc2C)N2CCN(C/C=C/c3ccccc3)CC2)c1OC (stereo not drawn)	-23%	-14%
O=C(Nc1ccc(F)cc1)C(c1ccncc1)N1CCN(CC(=O)N2CCCC2)CC1 (stereo not drawn)	3%	10%
Cc1ccc(C(=O)NCC(=O)OCc2nnc(-c3ccc([N+](=O)[O-])cc3)o2)cc1	-13%	-17%
CCCCCCn1cc(CN2CC(N3CCN(Cc4ccccc4F)CC3)CS2(=O)=O)nn1 (stereo not drawn)	0%	-12%
Cc1noc(C)c1S(=O)(=O)N(C)C[C@@H]1OCc2cnnn2CCCC(=O)N([C@@H](C)CO)C[C@H]1C	1%	-16%
Cc1cccc(C)c1-n1nnnc1C(c1ccnc2ccccc12)N(Cc1ccccc1)Cc1ccccc1 (stereo not drawn)	-10%	2%
COc1ccc(S(=O)(=O)N(C)C[C@H]2OCCCC[C@@H](C)Oc3ccc(NC(=O)CCC(F)(F)F)cc3C(=O)N([C@H](C)CO)C[C@@H]2C)cc1	10%	-1%
COc1cc(C(=O)OCCCN2CCOCC2)cc(OC)c1OC	0%	1%
COc1ccc(/C=C/C(=O)Nc2ccc(C(C)=O)cc2)cc1S(=O)(=O)N1CCOCC1	-14%	-8%
COC(=O)c1ccc2nc(C3CCCCC3)c3c(c2c1)CCC3	-17%	-8%
CCOC(=O)[C@]12CCC=C1N(Cc1ccco1)C(=O)[C@H](CC(=O)NCC1CCCCC1)C2	8%	-1%
OCCN1CCN(c2ncnc3c2ncn3[C@H]2CN(Cc3ccc(F)cc3)C[C@@H](CO)O2)CC1	-4%	7%[18.4 µM]
CC1=C(C(=O)N2CCOCC2)CC(CC(=O)NCc2ccco2)C(=O)N1Cc1ccccc1 (stereo not drawn)	0%	17%
COc1cc(CNc2ncnc3c2ncn3[C@H]2CN(Cc3ccco3)C[C@@H](CO)O2)cc(OC)c1OC	-6%	3%
O=C(O)c1ccccc1-c1cccc2nncn12	-3%	4%
OCCc1ccccc1	-6%	1%[18.4 µM]
O=C1O[C@@H](c2ccccc2)C[C@@H](O)C(=O)CCc2ccccc21	-6%	-10%
COc1cccc(C(=O)N2CCC2(C)C(=O)O)c1 (stereo not drawn)	-7%	-4%
Cc1c(N(C)S(=O)(=O)c2ccc(Cl)c(C(=O)NCC3CCCO3)c2)c(=O)n(-c2ccccc2)n1C (stereo not drawn)	-11%	-4%
CCCC[C@@H]1Cc2[nH][nH]c(=O)c2[C@H](c2ccc(C(C)C)cc2)O1	?	-14%
CCNC(=O)C1(C)CCN(C(=O)c2ccc3c(c2)OCO3)C1 (stereo not drawn)	-7%	6%[18.4 µM]
Cc1cccc(C)c1NC(=O)C(C1CC1)n1c(-c2ccc(C(F)(F)F)cc2)nc2ccccc21 (stereo not drawn)	-16%	1%
CC(=O)Nc1ccc(CNc2nc(NCCN(C)C)nc3cc(-c4ccccc4)sc23)cc1	1%	-6%
CC(Sc1nnc(-c2ccncc2)n1C)C(=O)NCC(=O)Nc1ccc(F)c(F)c1F (stereo not drawn)	-10%	7%
CCCN(CC(=O)Nc1ccccc1C)C(=O)c1cc2ccccc2oc1=O	-9%	-26%

Copied from above for reference:
SMILES	2A StopGo	RE007 growth inh
OCCc1ccccc1	-6%	1%[18.4 µM]
O=C1O[C@@H](c2ccccc2)C[C@@H](O)C(=O)CCc2ccccc21	-6%	-10%

Next section.
SMILES	2A StopGo	RE007 growth inh
C[C@H](CO)N1C[C@H](C)[C@@H](CN(C)S(=O)(=O)c2ccc(F)cc2)OCc2cnnn2CCCC1=O	-13%	0%
C[C@H](CO)N1C[C@H](C)[C@@H](CN(C)Cc2cccnc2)Oc2cc(-c3cccnc3)ccc2S1(=O)=O	12%	0%
C[C@H]1CN([C@@H](C)CO)C(=O)c2cc(/C=C/c3ccccc3)cnc2O[C@H]1CN(C)C(=O)c1cccc(F)c1	0%	-1%
CC(=O)N1CCc2cc(NC(=O)C3(C)CCN3CCc3ccccc3)ccc21 (stereo not drawn)	-25%	-13%[18.4 µM]
CCc1nc2c(OCc3cccc(Cl)c3)cccn2c1N(C)C(C)=O	-3%	2%
CC[C@H](C)[C@H]1CNC(=O)C(=O)N1CC1CCN(CCc2ccccc2)CC1	-26%	-15%
CC(C)c1ccc(CC(=O)N2CCC2(C)C(=O)Nc2ccc3c(c2)OCCO3)cc1 (stereo not drawn)	-10%	46%[18.4 µM]
O=C1C=C(N2CCOCC2)CO1	-11%	12%
CCC1CCC/C1=N\NC(=O)c1ccc(Cl)cc1 (stereo not drawn)	60%[activator]	2%
O=c1[nH][nH]c2c1[C@H](c1ccc(F)cc1)O[C@H](CCc1ccccc1)C2	-13%	5%
CCc1nc2c(OCC(=O)C(C)(C)C)cccn2c1N(C=O)Cc1ccc(OC)cc1	-17%	-9%
OC(c1ccc(-c2ccccc2)cc1)c1ncc(-c2ccccc2Cl)[nH]1 (stereo not drawn)	-9%	7%
O=C1NC[C@H](Cc2ccc(O)cc2)N(C[C@@H]2CCCN2C[C@H](Cc2ccccc2)N2C[C@H](Cc3ccccc3)N(CCc3ccccc3)C(=O)C2=O)C1=O	8%	3%
CCCC[C@@H]1CCCO[C@@](C(=O)NCc2ccccn2)(C(F)(F)F)C1	-27%	-8%
O=C(NCC1CCCO1)c1ccc(NC(=O)c2cccc(Cl)c2)cc1 (stereo not drawn)	-17%	3%
CC(C)c1ccc(NC(=O)C2Cc3c(-c4cccc(C(N)=O)c4)ccnc3O2)cc1 (stereo not drawn)	-13%	17%
O=C1/C(=C/c2ccc3c(c2)OCO3)SC(=S)N1CCC(=O)N(CCO)c1ccccc1	-23%	12%
CCc1cc(C(=O)N(CC)CC(=O)Nc2c(F)cccc2F)sc1C	-18%	-3%
CCc1nc2ccc(C(=O)N3CCN(S(=O)(=O)CC)CC3)cn2c1N(CC)Cc1cccc(Br)c1	-18%	-16%
O=C(CC(=O)c1ccccc1)Nc1cccc([N+](=O)[O-])c1	51%[activator]	-2%
CCOC(=O)[C@]12CCC=C1N(CCC1=CCCCC1)C(=O)[C@H](CC(=O)NCCC(C)C)C2	13%	-1%
Cc1ccc(F)cc1NC(=O)C1CC(=O)N(Cc2ccccc2)C1 (stereo not drawn)	0%	-13%
CC(N)C(=O)NC(C(=O)NC(C)C(=O)Nc1cccc2ccccc12)C(C)C (stereo not drawn)	-23%	6%
CC1C(=O)N(Cc2cn(CCC3OCCCO3)nn2)CCS(=O)(=O)N1Cc1ccc(-c2ccccc2)cc1 (stereo not drawn)	-3%	1%
Cc1cc(CNC[C@H]2O[C@@H](n3cnc(C(N)=O)n3)[C@H](O)[C@@H]2O)c(C)n1-c1cccnc1	-17%	-7%
CC1=C(C(=O)N(C(C)C)C(C)C)CC(CC(=O)NCCCN(C)C)C(=O)N1CCCN1CCCC1=O (stereo not drawn)	-16%	-4%
CCOC(=O)C1(C)CCN1C(=O)c1ccco1 (stereo not drawn)	-11%	10%
C[C@H](CO)N1C[C@H](C)[C@H](CN(C)C(=O)C2CC2)OCc2cnnn2CCCC1=O	-4%	2%
COc1cccc(NC(=O)CN2CCC(NC(=O)c3ccccc3C)CC2)c1	0%	5%
CCOc1ccc(CCN2C(=O)C(=O)N([C@@H](CC(C)C)CN3CCC[C@H]3CN3C(=O)C(=O)NC[C@@H]3Cc3ccc(O)cc3)C[C@@H]2CC(C)C)cc1	-18%	-2%
Nc1[nH]c(C(=O)c2ccccc2)c(-c2ccc(Cl)cc2)c1C(=O)NCCc1c[nH]c2ccccc12	-16%	-16%
Nc1nc2c(ncn2[C@@H]2O[C@H](CNCc3ccccc3)[C@@H](O)[C@H]2O)c(=O)[nH]1	-14%	5%
CN1OC[C@@H]2CN[C@H](c3cccc(-c4cc(Cl)cc(Cl)c4)c3)C[C@@H]21	-15%	0%
O=C(CC[C@H]1O[C@@H](n2cnc3c(NC(=O)c4ccccc4)ncnc32)[C@H](O)[C@@H]1O)N[C@@H](CO)Cc1c[nH]c2ccccc12	-13%	-2%
C[C@H](O)[C@@H]1CN2CCc3c([nH]c4ccc(-c5ccc6c(c5)OCO6)cc34)[C@@H]2C[C@@H]1N(C)C(=O)Nc1cc(Cl)cc(Cl)c1	?	-12%
CCc1nc2c(OCC3CCCCC3)cccn2c1N(C=O)Cc1ccc(OC)cc1	-20%	-19%[18.4 µM]
CN(Cc1ccc(Cl)cc1)C(c1cc2ccccc2o1)c1nnnn1C(C)(C)C (stereo not drawn)	?	-6%
CCN(C(=O)COC(=O)CCCc1nc2ccccc2s1)c1c(N)n(Cc2ccccc2)c(=O)[nH]c1=O	-7%	-4%
CCCCN(C(=O)c1cc(Cl)nc2ccccc12)c1c(N)n(CCC)c(=O)[nH]c1=O	-3%	1%
N#Cc1ccc(CN2CCN(C(=O)C3CC(=O)N(c4ccc5c(c4)OCCO5)C3)CC2)cc1 (stereo not drawn)	?	-9%

Part of the list above, in markdown:
| structure | 2A StopGo | RE007 growth inh |
| --- | --- | --- |
| CN1OC[C@@H]2CN[C@H](c3cccc(-c4cc(Cl)cc(Cl)c4)c3)C[C@@H]21 | -15% | 0% |
| O=C(CC[C@H]1O[C@@H](n2cnc3c(NC(=O)c4ccccc4)ncnc32)[C@H](O)[C@@H]1O)N[C@@H](CO)Cc1c[nH]c2ccccc12 | -13% | -2% |
| C[C@H](O)[C@@H]1CN2CCc3c([nH]c4ccc(-c5ccc6c(c5)OCO6)cc34)[C@@H]2C[C@@H]1N(C)C(=O)Nc1cc(Cl)cc(Cl)c1 | ? | -12% |
| CCc1nc2c(OCC3CCCCC3)cccn2c1N(C=O)Cc1ccc(OC)cc1 | -20% | -19%[18.4 µM] |
| CN(Cc1ccc(Cl)cc1)C(c1cc2ccccc2o1)c1nnnn1C(C)(C)C (stereo not drawn) | ? | -6% |
| CCN(C(=O)COC(=O)CCCc1nc2ccccc2s1)c1c(N)n(Cc2ccccc2)c(=O)[nH]c1=O | -7% | -4% |
| CCCCN(C(=O)c1cc(Cl)nc2ccccc12)c1c(N)n(CCC)c(=O)[nH]c1=O | -3% | 1% |

Continuation.
SMILES	2A StopGo	RE007 growth inh
CCCCN(C=O)c1c(CC)nc2c(OCC(=O)c3ccc(F)cc3)cccn12	-12%	-19%
CCCCn1nnnc1C(c1ccccc1)N1CCCN(Cc2ccc(F)cc2)CC1 (stereo not drawn)	-7%	?
CCOC(=O)C1=C(CCc2ccccc2)NC(=O)NC1c1ccc(C#N)cc1 (stereo not drawn)	-20%	7%
CCC(C(=O)NCc1ccccc1)n1c(CSCCOc2ccccc2)nc2ccccc21 (stereo not drawn)	?	0%
CC(C)CCN1CCC(CN2C(=O)C(=O)NC[C@@H]2Cc2ccccc2)CC1	-8%	3%
Cc1cccc(C)c1NC(=O)C1(C)CN(S(C)(=O)=O)CC(=O)N1Cc1ccco1 (stereo not drawn)	-21%	-2%
CCCC1NC(=O)c2cccnc2-n2c1nc1ccccc1c2=O (stereo not drawn)	-14%	0%
Cc1ccccc1S(=O)(=O)NC(=O)C1(C)CCN1C(=O)Cc1ccc(Cl)cc1Cl (stereo not drawn)	-6%	6%
CCO[C@H]1OC(C(=O)NCc2nc3ccccc3[nH]2)=C[C@@H](c2ccc3c(c2)OCO3)[C@@H]1CCCO	-7%	-11%
CCN(CC)C(=O)c1nc(-c2cccc3ccccc23)no1	64%[activator]	-3%
O=C(N[C@H]1CC[C@H](CC(=O)N2CCCCC2)O[C@@H]1CO)c1cccc(F)c1	-19%	-8%
CNc1cncc(-c2ccc(OC)c(OC)c2)n1	?	1%
NC(c1ccccc1)c1csc(Nc2ccc(C(=O)c3ccccc3)cc2)n1 (stereo not drawn)	-28%	-17%
CCOC(=O)C1=CCC(c2ccccc2)N(S(=O)(=O)c2ccccc2)C1 (stereo not drawn)	-21%	-3%
CNc1nc(N/N=C/c2cc([N+](=O)[O-])ccc2F)nc(Nc2ccccc2)n1	?	-1%
COc1ccc(NC(=O)c2ccc3nc(C)c(N(C)C(=O)CCc4ccccc4)n3c2)cc1OC	-16%	-12%
CC(C)C(C(=O)NCc1ccccc1)N1CCN(C(=O)C2CCCO2)CC1 (stereo not drawn)	-23%	12%
C[C@@H](NC(=O)[C@H]1O[C@@H](n2cnc3c(N)ncnc32)[C@H](O)[C@@H]1O)c1cccc2ccccc12	0%	1%
O=S(=O)(c1ccccc1)C(Br)S(=O)(=O)c1ccccc1	15%	-7%
CN1C[C@@H]2[C@@H]3C(=O)N(Cc4ccccc4)C(=O)[C@@H]3[C@](Cc3ccccc3)(C1=O)N2C(=O)c1ccc(F)cc1	37%[activator]	-7%
CCOc1ccc(-c2cc(C(=O)NCc3cc(OC)cc(OC)c3)[nH]n2)c(C)c1	-4%	-9%

By substructure, those above with a thiophene ring, fused or not (2)
SMILES	2A StopGo	RE007 growth inh
CC(=O)Nc1ccc(CNc2nc(NCCN(C)C)nc3cc(-c4ccccc4)sc23)cc1	1%	-6%
CCc1cc(C(=O)N(CC)CC(=O)Nc2c(F)cccc2F)sc1C	-18%	-3%
